# Bioassay records (PubChem BioAssay)
# HCMV NEC inh – inhibitors of HCMV UL50-UL53 interaction, biochemical, HTRF. inhibition, % (test concentration not listed). AID 1918969, 2023. normalized percent inhibition. HCMV UL50-UL53 nuclear egress complex (human cytomegalovirus). 190,000 tested, 0.15% active;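 active = both replicates at 50% or more, plus weaker picks with an unusually low signal ratio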;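 note: stock transfer was 100 nL into about 20 µL; 0% = negative control wells and 100% = wells with untagged competitor protein; inactives centre near -12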
# GIV Gai3 FP – inhibitors of GIV peptide binding to Galpha-i3, primary screen, biochemical, fluorescence polarization, FITC-GIV GBA peptide, rat Galphai3. Guanine nucleotide-binding protein G(i) subunit alpha-3 (Rattus norvegicus), P08753. 90 min; hits give low values; scaled: aluminum fluoride 0%, vehicle 100%. percent of control (FP), % (concentration not given with the values). 210,000 tested, 0.42% active. AID 1224905, 2016;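 active = replicate mean at 85% of control or lower, very high polarization wells dropped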;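 note: wells of about 15 µL received 100 nL stock; the first replicate is given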
# Target sequence (P08753 whole entry, looked up): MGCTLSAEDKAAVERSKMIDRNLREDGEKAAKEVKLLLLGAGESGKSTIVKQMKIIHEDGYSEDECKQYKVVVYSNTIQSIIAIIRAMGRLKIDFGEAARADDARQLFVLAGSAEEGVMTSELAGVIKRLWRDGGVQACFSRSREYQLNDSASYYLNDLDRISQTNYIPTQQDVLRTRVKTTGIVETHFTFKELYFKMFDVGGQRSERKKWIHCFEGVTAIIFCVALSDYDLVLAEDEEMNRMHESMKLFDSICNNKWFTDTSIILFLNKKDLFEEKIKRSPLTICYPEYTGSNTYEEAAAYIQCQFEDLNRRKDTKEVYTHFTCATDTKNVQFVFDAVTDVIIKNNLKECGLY
# Sa growth 42C – S. aureus growth inhibition at 42 and 30 °C, primary screen, LtaS inhibitor project, RN4220, two temperatures. OD600, 20 h, 42 °C; hits give low values. relative growth, % (test concentration not listed). 170,000 tested, 0.53% active;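 active = growth at 42 °C up to 50% and 20 or more points under that at 30 °C, or under 10% at both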;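 note: 300 nL library stock went into each well; scaled to the means of positive and negative controls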
# Sa growth 42C second temp – recorded beside Sa growth 42C, whose call it bears; relative growth, %; measured here: growth at 30 °C;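 optical density after 20 h as mean of two plates; 100% = untreated growth and lower means inhibition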
# The depositor's hits bear a star; x = not tested or not shown; & = joins results of further samples.
SMILES,HCMV NEC inh,GIV Gai3 FP,Sa growth 42C,Sa growth 42C second temp
O=C(NC(=S)NCc1ccco1)c1ccccc1,-2,x,97,57
COCc1cc(C)nc2sc(C(=O)c3ccccc3)c(NC(=O)c3ccco3)c12,-34,103,x,x
CCOc1cc(/C=C2/SC(=S)N(C(CCC(=O)O)C(=O)O)C2=O)ccc1O (stereo not given),-42,125,x,x
COc1ccc(C2=NN(S(C)(=O)=O)C(c3ccccc3OC)C2)cc1 (stereo not given),x,155,125,90
CC1CN=C(NCCSc2ccc(Cl)cc2)S1 (stereo not given),3,x,116,90
Cn1nc(CC(=O)N2CCN(c3ccccc3)CC2)c2ccccc2c1=O,5,x,109,87
Cc1ccc(OCC(=O)NC2CC2)cc1,-26,103,98,103
N#C/C(=C\Nc1ccc(C(=O)O)cc1)c1nc2ccccc2[nH]1,-57,111,96,88
CCOC(=O)c1sc2nc(C)nc(NC3CC3)c2c1C,-22,x,65,81
O=C(O)CCC(=O)N1N=C(c2cccs2)CC1c1ccc(Br)cc1 (stereo not given),-62,110,x,x
CCOC(=O)c1c(S(=O)(=O)NCC(=O)NCc2ccccc2Cl)c(C)n(C)c1C,x,102,100,89
Cc1nc(SCC(N)=O)c2c3c(sc2n1)CCCC3,-9,97,119,83
CCOc1ccc(CNC(=O)c2ccc3[nH]c(C)c(C)c3c2)cc1OC,x,105,98,88
CC1CCCN(CCCNC(=O)c2ccc(CS(=O)(=O)c3c(Cl)cccc3Cl)o2)C1 (stereo not given),2,101,104,87
CCOc1ccc(CC(=O)Nc2c(C(N)=O)oc3ccc(Cl)cc23)cc1OCC,-5,101,119,90
C=CCN(CC=C)C(=O)CCN1C(=O)c2ccccc2C1=O,-54,109,106,83
CCCCN(CC)CCCNC(=O)CS(=O)(=O)Cc1nc(-c2ccc(C)cc2)oc1C,-22,105,101,91
Cc1ccc(Nc2c(-c3ccc(N4CCOCC4)cc3)nc3ncccn23)cc1,-12,104,107,103
c1ccc(-c2nnc3sc(-c4ccc5c(c4)OCO5)nn23)cc1,x,102,77,55
COc1ccccc1NC(=O)C1CCN(C(=O)c2sc3nc[nH]c(=O)c3c2C)CC1,x,102,70,87
COc1ccc(NS(=O)(=O)c2cc(N3C(=O)CCS3(=O)=O)ccc2OC)cc1OC,-11,100,x,x
NC(=O)c1c(-c2ccc(F)cc2)noc1N,0,103,91,90
Cc1nnsc1C(=O)Nc1ccccc1C#N,-4,107,103,90
O=C(Nc1nc2c(s1)CCCCCC2)Nc1ccc(F)cc1F,x,103,97,95
CCN(CC)C(=O)CSc1nnc(-c2ccccc2Cl)o1,x,97,86,74
CC(C)(Oc1ccc(Cl)cc1)C(=O)Nc1nc2ccc(S(C)(=O)=O)cc2s1,-24,106,97,86
CCCCN1C(=O)CNC1=S,-1&-20,106,90&101,79&84
CCCCOc1ccccc1C1C(C(=O)OC)=C(C)NC2=C1C(=O)CC(c1ccc(OC)c(OC)c1)C2 (stereo not given),2,98,x,x
CC(=O)c1ccc(N2CCN(S(=O)(=O)c3ccc4c(c3)CC(C)N4C(=O)C3CCC3)CC2)cc1 (stereo not given),x,103,109,96
Cc1ccc(N(CC(=O)Nc2cc(Cl)ccc2C)S(=O)(=O)c2c(C)nn(C)c2C)cc1,-11,101,x,x
CCOC(=O)c1cccc(NC(=O)CCc2c(C)nn(-c3ccc(N4CCCC4)nn3)c2C)c1,x,101,95,91
Cc1ccccc1-c1nn2c(CSc3ccccc3)nnc2s1,-21,112,x,x
N#C/C(=C/c1ccc(O)cc1)c1nc(-c2ccc(-c3ccccc3)cc2)cs1,-49,109,103,93
CN(C)CCNC(=O)CN1CCSc2ccccc21,-4,134,x,x
C=CCNC(=S)Nc1ccc(Br)cc1,-11,96,76,54
O=S(=O)(NCc1csc(-c2cccnc2)n1)c1ccc2c(c1)CCCC2,x,100,94,78
COC(C(=O)NN=C1CCN(C)CC1)c1ccccc1 (stereo not given),0,98,89,112
CCOc1ccc(N(CC)C(=O)c2noc3c2COc2ccc(C)cc2-3)cc1,x,106,75,109
CO[C@H]1/C=C/O[C@@]2(C)Oc3c(C)c(O)c4c(O)c(c(/C=N/N5CCN(C)CC5)c(O)c4c3C2=O)NC(=O)/C(C)=C\C=C\[C@H](C)[C@H](O)[C@@H](C)[C@@H](O)[C@@H](C)[C@H](OC(C)=O)[C@@H]1C,-90&-79,100,1.6*,0.9*
CC1CN(C(=O)CSc2nc(-c3ccco3)cc(C(F)(F)F)n2)CC(C)O1 (stereo not given),x,103,106,97
CCCc1cc(=O)oc2cc(OCn3nnc4ccccc4c3=O)ccc12,1,x,96,96
COc1ccccc1/C=C/c1nc(C#N)c(N2CCCCCC2)o1,-28,101,110,83
CN(C)c1ccc(CNC(=O)c2nccn2Cc2ccc(Cl)cc2)cc1,-23,108,101,81
O=C(NC1CCCC1)C(c1ccccc1)N(C(=O)c1ccco1)C1CCCC1 (stereo not given),7,100,124,85
NC(=O)N/C(CSCc1c(F)cccc1Cl)=N/O,-34,107,91,80
CC1CC(Nc2ccccc2)c2ccccc2N1C(=O)COc1ccc2ccccc2c1 (stereo not given),-15,101,x,x
CSc1nc2ccsc2c(=O)[nH]1,-17,101,84,74
Cc1nn(CC(=O)Oc2ccc(Cl)cc2)c(C)c1Cl,-12,98,87,91
CCOc1cc(C2Nc3ccccc3C(=O)N2Cc2ccco2)ccc1OCc1ccccc1Cl (stereo not given),-9,108,x,x
COC(=O)c1c(NC(=O)c2ccc(S(=O)(=O)N3CCCCC3)cc2)sc2c1CCN(C(C)=O)C2,1,98,103,82
CC(C)C(C1=C(O)CC(C)(C)CC1=O)C1C(=O)CC(C)(C)CC1=O (stereo not given),0,x,115,95
CCOC(=O)c1ccc(NC(=O)CSC(=S)N2CCOCC2)cc1,7,x,106,103
CCS(=O)(=O)N1CCc2cc(C(=O)NCc3ccc(Cl)cc3)ccc21,-19,102,102,90
O=C(O)Cn1c(SCCOc2ccccc2F)nc2ccccc21,-10,102,x,x
N=Cc1c(O)n(-c2ccccc2)c2ccccc12,-44,104,97,70
CC(C)NC(=O)c1cc2ccccc2oc1=O,-49,106,106,85
Cc1ccccc1C1CC(=O)c2c(C)nc(N3c4ccccc4CC3C)nc2C1 (stereo not given),-19,99,x,x
C=CC[N+]1([C@H]2C[C@H]3[C@@H]4CC[C@H]5C[C@H](O)[C@@H](N6CCOCC6)C[C@]5(C)[C@H]4CC[C@]3(C)[C@H]2OC(C)=O)CCCC1,4,100,97,86
O=C(O)c1ccc2nc(-c3ccccn3)c(-c3ccccn3)nc2c1,-53,105,99,93
CCOC(=O)c1[nH]c(C)c(S(=O)(=O)NC(C)(C)CC)c1C,-4,103,x,x

# Further results follow:
SMILES,HCMV NEC inh,GIV Gai3 FP,Sa growth 42C,Sa growth 42C second temp
Cc1ccc(C(CNC(=O)c2ccccc2)N2CCN(C)CC2)cc1 (stereo not given),-22,101,101,88
Cc1ccccc1CNC(=O)c1ccc(NC(=O)N2CCCCc3ccccc32)cc1,x,95,94,89
OCN1C2=NCN(Cc3ccc(Cl)cc3)CN2c2ccccc21,-35,x,99,97
COc1ccc2c(c1)C1=NN(C(C)=O)C(c3ccc(N(C)C)cc3)C1CC2 (stereo not given),-29,99,88,78
O=C(Nc1ncn[nH]1)c1cccnc1,-22,x,78,87
CCn1c(C(=O)O)c(CNCc2ccccc2)c2ccc(OC)cc21,x,99,93,66
CC(OC(=O)c1ccc(C#N)cc1)C(=O)Nc1cccc(C(F)(F)F)c1 (stereo not given),-41,x,96,90
O=C(Nc1ccccc1F)C1CCN(S(=O)(=O)c2ccc3c(c2)CCCN3C(=O)C2CCC2)CC1,x,105,121,85
O=C1CCCc2cc(S(=O)(=O)N3CCC(C(=O)NCc4cccnc4)CC3)ccc2N1,-9,109,x,x
Cc1ccc(C(=O)CN(Cc2ccccc2)c2ccccc2)cc1,-36,105,97,89
O=C(O)C1N(Cc2ccccc2)CCCN1Cc1ccccc1,0,103,115,99
COc1cccc(CNCc2cccn2-c2sc(C)c(C)c2C(=O)O)c1,-8,102,x,x
Cc1ccc(S(=O)(=O)Nc2ccccc2SCc2cc(=O)n3cc(C)ccc3n2)cc1,-23,106,x,x
Brc1ccccc1-c1nn2c(-c3cccnc3)nnc2s1,3,100,x,x
CCOc1ccccc1NC(=O)N(Cc1ccc(F)cc1)C1CCN(CC)CC1,x,101,124,94
O=C(c1ccc(N2CCCS2(=O)=O)cc1)N1CCN(Cc2ccc3c(c2)OCO3)CC1,6,106,86,100
CCOC(=O)c1cnc2ccccc2c1NCCO,-6,x,100,89
COc1ccc(OC)c(NS(=O)(=O)c2ccc3c(c2)C(C)(C)C(=O)N3C)c1,-4,102,97,83
COc1cc(/C=C/C(=O)C2=C(O)c3ccccc3C2=O)ccc1O,-35,118,57,22
Cc1cc(C)c2c(-n3cccc3)c(C(=O)OC3CC(C)OC3=O)sc2n1 (stereo not given),6,x,102,92
Cc1ccc2[nH]cc(CCNC(=O)C3CCN(S(=O)(=O)c4ccc5c(ccn5C)c4)CC3)c2c1,-25,109,x,x
COc1cc(C2C(C(=O)Nc3ccc(Br)cn3)=C(C)NC3=C2C(=O)CCC3)ccc1O (stereo not given),-4,101,x,x
O=C(NCCCN1CCOCC1)c1nc(-c2ccc(F)cc2)no1,-34,102,101,98
COc1ccccc1CNS(=O)(=O)c1ccc2c(c1)NC(=O)C(C)C(=O)N2 (stereo not given),2,98,85,87
COc1cccc(NS(=O)(=O)c2ccc3[nH]cc(C(=O)N4CCCCC4)c(=O)c3c2)c1,5,95,114,94
COC(=O)CCSC1CC(=O)N(c2ccccc2)C1=O (stereo not given),-15,105,90,96
O=C1CC(C(=O)NCc2ccccc2)N=C(N2CCCCC2)N1 (stereo not given),0,105,101,94
Cc1oc2ccc(O)c(CN3CCOCC3)c2c1C(=O)Nc1ccc(C(C)C)cc1,-1,103,93,88
Cc1ccc(N2C(=O)CC2(C(=O)NC2CCCCC2)c2cccs2)cc1 (stereo not given),x,100,83,88
CCOC(=O)c1cc(NC(=O)N(C)c2ccccc2CC)c(C)nc1C,-6,97,x,x
CCC(C(=O)NCCc1ccccc1OC)n1nc(C)c2sc3ccccc3c2c1=O (stereo not given),-2,105,x,x
O=C(C1=COCCO1)N1CCN(S(=O)(=O)c2cccc(Cl)c2Cl)CC1,-35,x,90,95
COc1ccc2nc(NC(=O)c3nc(SCc4ccccc4F)ncc3Cl)sc2c1,-35,99,96,86
Cc1c(C)n(Cc2ccccc2)c2ncnc(N)c12,-7,x,73,90
O=C(Nc1ccc(Cl)c(-c2nc3cc(Cl)ccc3o2)c1)c1cc2ccccc2o1,-54,100,91,88
CN(C)c1ccc(C(=O)OCc2ccccc2)cc1,-14,102,115,83
O=C(CN1CCN(C(=O)CN2C(=O)C3CC=CCC3C2=O)CC1)Nc1ccc(Cl)c(C(F)(F)F)c1 (stereo not given),24,x,96,105
O=C(NCc1ccc(Cl)cc1)C1CCCN(c2nc3ccccc3n(Cc3ccccc3)c2=O)C1 (stereo not given),-30,102,x,x
Cc1ccc(NC(=O)N/C(=N/O)c2ccc(NC(=O)C3CC3)cc2)cc1Cl,-6,x,79,94
Cc1cccc(C)c1NC(=O)N(Cc1ccccc1)C(=O)CC#N,0,99,107,90
CCOC(=O)c1sc(SC)c(C(C)O)c1C (stereo not given),4,106,93,90
Cc1ccc(CN2c3ccccc3-c3nc(SCC(=O)Nc4ccccc4)ncc3S2(=O)=O)cc1,-21,110,x,x
CCOC(=O)C1=C(C)N=c2s/c(=C3\C(=O)N(C)c4ccccc43)c(=O)n2C1c1ccc(OC)c(OC)c1 (stereo not given),-13,105,x,x
Cc1ccc(OCCn2c(-c3ccc(Br)cc3)nc3ccccc3c2=O)cc1C,-29,106,107,90
